Source: PubChem BioAssay
SARS PLP yeast: SARS-CoV PLP inhibition in yeast | Potency, µM (series often up to 32.9 µM), for the others: at the highest dose activity, positive = growth rescue | S. cerevisiae expressing SARS-CoV PLpro, growth rescue; control for the full effect not named in the record | AID 485353 | 330,000 tested, 0.19% active; further: 0% is about no effect; nearly all actives have a fitted effect of over 55% in size; growth read by luminescence after 48 h
StopGo reporter: lowers the luciferase signal of an FMDV 2A StopGo reporter; 410,000 tested, 1.2% active; Potency, µM (doses to about 57.9 µM), inactives show top-dose signal change, negative = less light; human cells with a luciferase reporter of 2A StopGo recoding; control for the full effect not named in the record; active = well fitted falling curve with a large enough effect; inconclusive = small, poorly fitted or top-dose-only effect; inactive = no such curve, though single readings can be large or run the other way; tested in HEK293T cells; further: on the % scale 0 is the no-effect control and ±100 the full control effect; nearly all actives have a fitted effect of over 45% in size; luciferase light after 4 h
Marburg entry inh: inhibitors of Marburg virus binding or cell entry. Marburg virus pseudotyped entry inhibition, cell reporter; control for the full effect not named in the record; about a third of the inactives were read at about 46 µM. Potency, µM (series often up to 37.8 µM), for the others: at the top dose activity change, negative = inhibition, most hits filed as inhibitors. 300,000 tested, 1.8% active. AID 540276; active = well fitted inhibition curve with a large enough effect; inconclusive = small, poorly fitted or top-dose-only effect, or effect the other way; inactive = flat fitted curve, though single readings scatter; tested in HEK293 cells; about a fifth of its hits are not listed in these tables; further: on the % scale 0 is the no-effect control and ±100 the full control effect; luciferase read-out
RE007 growth inh: less growth of the S. pombe RE007 Vpr strain | S. pombe RE007 Vpr strain, BacTiter-Glo ATP luminescence, 24 h; control for the full effect not named in the record | Potency, µM (series often up to 92.2 µM), without a hit: at the top dose activity change, negative = less growth | 360,000 tested, 0.21% active | AID 651644; active = well fitted falling curve with a large enough effect; inconclusive = small, poorly fitted or top-dose-only effect; inactive = no such curve, though single readings can be large or run the other way;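 further: on the % scale 0 is the no-effect control and ±100 the full control effect; nearly all actives have a fitted effect of over 50% in size; the assay follows cell death caused by Vpr and the record does not say whether a fall means rescue or toxicity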
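Fission yeast strain RE007, carrying one chromosomally integrated HIV-1 vpr copy, was seeded at OD 0.01 in PMG+AL medium with 23 nL pinned compound. After 24 h at 30 °C and 99% humidity, viability was read by BacTiter-Glo luminescence.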
Lassa entry inh: blocks Lassa virus binding to or entry into cells. AID 540256. Potency, µM (series often up to 37.9 µM), for inactives: at the top dose activity change, negative = inhibition, hits mostly inhibitors. Lassa virus pseudotype entry inhibition, cell reporter; control for the full effect not named in the record. 300,000 tested, 1.2% active; active means well fitted inhibition curve with a large enough effect; inconclusive means small, poorly fitted or top-dose-only effect, or effect the other way; inactive means flat fitted curve, though single readings scatter; tested in HEK293 cells; further: on the % scale 0 is the no-effect control and ±100 the full control effect; nearly all actives have a fitted effect of over 50% in size; luciferase read-out
Cruzain inh Det: blocks cruzain activity in presence of Triton detergent. P25779. purified cruzain, Z-FR-AMC fluorescence, 0.01% Triton. Potency, µM, for inactives: max response, negative = inhibition, actives largely listed as inhibitors. 200,000 tested, 0.43% active; active means well fitted curve in the direction sought with a large enough effect; inconclusive means small, poorly fitted or top-dose-only effect, or another doubt; inactive means no such curve, though single readings can be large; an effect the other way counts as inactive or inconclusive;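 further: plate controls were neutral wells for no effect and buffer without enzyme for full effect; nearly all actives have a fitted effect of over 40% in size; top concentration of the series not given in the record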
Target sequence (P25779 123-467 limits assumed): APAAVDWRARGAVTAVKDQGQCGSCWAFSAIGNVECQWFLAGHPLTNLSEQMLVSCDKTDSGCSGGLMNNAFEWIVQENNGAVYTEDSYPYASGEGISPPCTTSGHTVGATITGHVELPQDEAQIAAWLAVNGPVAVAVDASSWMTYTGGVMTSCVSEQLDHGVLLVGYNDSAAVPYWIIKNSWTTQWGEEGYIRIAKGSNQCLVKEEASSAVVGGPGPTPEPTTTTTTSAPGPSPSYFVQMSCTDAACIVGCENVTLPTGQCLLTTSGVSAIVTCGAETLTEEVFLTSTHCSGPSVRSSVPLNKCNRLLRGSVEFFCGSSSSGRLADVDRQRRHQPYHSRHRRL
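Detergent-containing arm of a paired screen for aggregation-based inhibition: 0.01% Triton X-100 present. Cruzain at 1.5 nM cleaved 2 uM Z-FR-AMC at pH 5.5 with 5 mM DTT; AMC fluorescence gain over 60 s measured activity.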
NS1 inh: blocks influenza NS1 protein function | S. cerevisiae slowed by influenza A NS1, growth recovery by OD600 | Potency, µM (titrated, usually from 46.1 µM), inactives show at the highest dose activity, positive = more growth | 270,000 tested, 0.4% active | AID 2326; further: actives are rising curves; nearly all actives have a fitted effect of over 50% in size
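Growth recovery, yeast-based: influenza A NS1 expressed in S. cerevisiae causes slow growth, and suppressors are detected by OD600. The parent strain without NS1 is used as positive control.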
Cruzain noTriton: cruzain (T. cruzi) inhibition without detergent. 200,000 tested, 2.3% active. P25779. purified cruzain, Z-FR-AMC fluorescence, no detergent. AID 1476. Potency, µM, inactives show max response, negative = inhibition, hits mostly inhibitors; active means well fitted curve in the direction sought with a large enough effect; inconclusive means small, poorly fitted or top-dose-only effect, or another doubt; inactive means no such curve, though single readings can be large; an effect the other way counts as inactive or inconclusive;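 further: plate controls were enzyme without inhibitor for no effect and buffer without enzyme for full effect; nearly all actives have a fitted effect of over 40% in size; top concentration of the series not given in the record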
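Detergent-free condition (0.00005% Triton X-100) in acetate buffer pH 5.5 with DTT. 1.5 nM enzyme and compound were pre-mixed 15 min, then 2 uM Z-FR-AMC substrate added; reaction progress from fluorescence change between first and third reads (60 s).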
Active calls of the source: *; ? = inconclusive; . = not tested or not shown; & = joins results of further samples; [ ] = remark or other dose. Unless noted, the call rests on the fitted dose curve; in most records, active means well fitted rising curve with a large enough effect; inconclusive means small, poorly fitted or top-dose-only effect; inactive means no such curve, though single readings can be large or run the other way. Potency means the concentration at half of the fitted maximal effect.

item	smiles	SARS PLP yeast	StopGo reporter	Marburg entry inh	RE007 growth inh	Lassa entry inh	Cruzain inh Det	NS1 inh	Cruzain noTriton
1	O=C(NNc1ccccn1)C(=O)NNS(=O)(=O)c1ccc(F)cc1	4%	-17%	3%[46.1 µM]	13%	12%	.	.	.
2	COc1ccc(C)cc1NC(=O)C(NS(=O)(=O)c1cccc2nsnc12)c1ccccc1 (configuration not stated)	.	-4%	-13%[46.1 µM]	.	?	-5.3%	.	1%
3	Cc1noc(C)c1S(=O)(=O)NCCCN1CCN(Cc2ccccc2)CC1	4%	.	.	.	.	-1.4%	2%	1%
4	CCOC(=O)c1ccc(N2C(=O)CC(Sc3nc(C)cc(C)n3)C2=O)cc1 (configuration not stated)	-1%	17%	.	7%	.	.	6%	.
5	Cc1oc(/N=C/c2ccccc2)c(C#N)c1C	0%	43%[activator]	1%	16%	18%	.	-7%	.
6	COc1ccc(Nc2nnc(Cc3ccncc3)c3ccccc23)c(OC)c1	1%	-7%	.	-19%	.	.	10%	.
7	O=C1NCCCCC1NS(=O)(=O)c1ccc(Cl)cc1 (configuration not stated)	0%	-4%	.	2%	.	.	-1%	.
8	COc1cc(Cl)c(C)cc1NC(=O)c1ccccc1-n1cnnn1	21%	-7%	-10%[46.1 µM]	9%	-1%[46.1 µM]	.	.	.
9	COc1ccc(CCNC(=O)COc2coc(CN3c4ccccc4CC3C)cc2=O)cc1OC (configuration not stated)	4%	22µM*	?	8%	?	.	.	.
10	O=C(NCCCn1ccnc1)c1cc(C(=O)C2CCCCC2)c[nH]1	1%	6%	2%[46.1 µM]	0%	-27%	.	.	.
11	CCCCNC(=O)CNC(=S)N(Cc1ccccc1F)C1CCCCC1	0%	-2%	?	12%	-14%	.	.	.
12	O=c1[nH]c(SCc2ccccc2F)nc2ccccc12	0%	3%	-29%[46.1 µM]	2%	-12%	.	2%	.
13	CCN(CC(=O)Nc1ccc2c(c1)OCCO2)C(=O)c1ccc(C(F)(F)F)cc1	0%	26%	17%	-19%	29%	.	.	.
14	C[C@H](NC(=O)c1cc2cc(Cl)ccc2n1C)C(=O)N[C@@H](C(=O)O)c1ccccc1	1%	-4%	0%[46.1 µM]	-11%	16%[46.1 µM]	.	3%	.
15	CCN1CCN(C(=O)/C=C/c2ccc(C)cc2)CC1	-1%	16%	?	-12%	20%[46.1 µM]	.	-2%	.
16	COc1cc2cc(C(=O)O)[nH]c2c(OC)c1OC	1%	.	?	0%	?	-1.2%	2%	11%
17	C/C(CCC1CC(C)OC1=O)=N\NC(N)=S (configuration not stated)	?	4%	.	8%	.	.	5%	.
18	COc1ccc(N2C(=O)CC(Sc3n[nH]c(-c4ccccc4)n3)C2=O)cc1 (configuration not stated)	-4%	-14%	22%	18µM*	1%	.	-66%	.
19	Cc1ccc(C)c(N2CCN(CCCNC(=O)c3ccc4nc(C(C)C)oc4c3)CC2)c1	.	?	.	.	?	-1.0%	.	-4%
20	COc1cc2[nH]c(C(=O)N3CCN(C)CC3)cc2c(OC)c1OC	1%	-6%	.	-9%	.	.	13%	.
21	COc1ccccc1OCC#CCN1CCOCC1	-1%	24%	-7%[14.2 µM]	-1%	16%	.	7%	.
22	Cc1onc(-c2ccccc2Cl)c1C(=O)OCC(=O)c1ccc[nH]1	1%	-7%	-7%	-4%	9%	.	.	.
23	CCc1nc(SC)[nH]c(=O)c1C	-2%	3%	9%	18%	7%	3.2%	6%	-8%
24	CC1CC(OCC(O)CN2CCOCC2)CC(C)(C)C1 (configuration not stated)	29%	-17%	?	-24%	?	-0.4%	2%	-6%
25	CCc1ccc(NC(=O)Cn2c(=O)n(Cc3ccccc3)c(=O)c3oc4ccccc4c32)cc1	.	-23%	.	.	0%[46.1 µM]	-0.1%	.	-3%
26	COCCn1nnnc1CN1CCC(C)CC1	14%	-2%	-22%[46.1 µM]	-3%	17%	4.3%	6%	-7%
27	O=C(Nc1ccc2c(c1)OCO2)c1ccc(Cl)c(S(=O)(=O)N2CCOCC2)c1	-16%	?	-24%	4%	-14%	.	-12%	.
28	CC1CCCCN1S(=O)(=O)c1ccc([N+](=O)[O-])cc1 (configuration not stated)	-3%	-8%	.	-1%	.	.	1%	.
29	CC(/C=N/NC(=O)CN1CCN(Cc2ccc(Cl)cc2)CC1)=C\c1ccco1	0%	?	?	15%	4%	-11%	12%	-1%
30	C#CCNC(=O)C1=C[C@H](c2ccc(Br)cc2)C[C@H](OCc2ccc(CO)cc2)O1	-3%	-11%	.	0%	.	.	-3%	.
31	Cc1ccccc1CNC(=O)Nc1ccc2c(c1)N(C)C(=O)c1ccccc1S2	.	?	4%[46.1 µM]	.	-30%[46.1 µM]	-1.7%	.	?
32	Cc1nnc2c(N3CCN(c4ccc(F)cc4)CC3)nc3ccc(C(=O)c4ccccc4)cc3n12	.	6%	.	.	-3%[46.1 µM]	0.2%	.	-9%
33	O=C(CC1Sc2ccccc2NC1=O)NNc1ccc(Cl)c(Cl)c1 (configuration not stated)	.	-15%	-25%[46.1 µM]	5%	-2%[46.1 µM]	.	.	.
34	COc1cc(C2CC(=O)c3c([nH]c(C(=O)OC4CCCC4)c3C)C2)cc(OC)c1OC (configuration not stated)	.	?	?	.	?	-7.4%	.	?
35	Cc1cccc(C)c1NCC(=O)N1CCN(Cc2ccccc2)CC1	-1%	4%	-1%[46.1 µM]	-4%	2%[46.1 µM]	.	1%	.
36	CCN(CC)CCSc1nc(O)c(Cc2ccccc2)c(=O)n1-c1ccccc1	0%	20%	-9%[46.1 µM]	12%	9%[46.1 µM]	.	.	.
37	Cc1ccc(Cl)cc1N1CCN(S(=O)(=O)c2c(C)[nH]c(C)c2C(=O)N2CCCCC2)CC1	1%	-25%	.	-1%	.	.	14%	.
38	COc1ccc(-c2nc(CCNC(=O)c3cccs3)cs2)cc1	-24%	?	.	6%	?	-7.0%&-6.5%	-43%	-14%&-11%
39	COc1ccccc1C1(O)CCN(C(=O)c2cccs2)CC1	1%	-16%	2%	13%	4%	2.8%	-3%	6%
40	COc1cc(C(=O)N(Cc2cccc(Cl)c2)C2CCS(=O)(=O)C2)cc(OC)c1OC (configuration not stated)	2%	-1%	-15%	-12%	-7%	0.7%	-8%	24%
41	O=C(Nc1cc(Cl)cc(Cl)c1)N1CCN(C(=O)C2CCCO2)CC1 (configuration not stated)	-4%	-14%	12%	-6%	?	.	3%	.
42	COc1ccccc1N1CCN(C(=O)CSc2nc(C)cc(=O)[nH]2)CC1	2%	-9%&12%	-21%[46.1 µM]	13%	-1%[46.1 µM]	-6.5%&2.2%	0%	-14%&-7%
43	COc1ccc(CCNC(=O)CCC(=O)N2CC(C)Oc3ccccc32)cc1OC (configuration not stated)	-4%	-20%	.	-8%	.	.	-10%	.
44	CSCCC(NS(=O)(=O)c1ccc2c(c1)c(=O)n(C)c(=O)n2C)C(=O)NC1CCN(Cc2ccccc2)CC1 (configuration not stated)	-4%	3%	0%[46.1 µM]	3%	15%	.	.	.
45	CCn1cc(C(=O)NC2CCCCC2)c(=O)c2cc(S(=O)(=O)N(C)C)ccc21	6%	-5%	.	-4%	.	-1.8%	-16%	?
46	CCCC12CN3CCN(CC(C3)/C1=N\NC(=O)c1ccccc1Cl)C2	0%	-8%	6%[46.1 µM]	6%	-14%	.	.	.
47	CCOC(=O)N1CCC(N2C(=O)c3ccccc3C2Nc2c(C)cccc2C)CC1 (configuration not stated)	0%	-29%	-3%	9%	.	-1.6%	15%	23%
48	CC(C)C(NC(=O)c1ccco1)C(=O)NC1CCCCCC1 (configuration not stated)	-6%	-2%	-1%[46.1 µM]	3%	25%[46.1 µM]	.	2%	.

3 entries drawn at random from those above, as already listed:
item	smiles	SARS PLP yeast	StopGo reporter	Marburg entry inh	RE007 growth inh	Lassa entry inh	Cruzain inh Det	NS1 inh	Cruzain noTriton
42	COc1ccccc1N1CCN(C(=O)CSc2nc(C)cc(=O)[nH]2)CC1	2%	-9%&12%	-21%[46.1 µM]	13%	-1%[46.1 µM]	-6.5%&2.2%	0%	-14%&-7%
43	COc1ccc(CCNC(=O)CCC(=O)N2CC(C)Oc3ccccc32)cc1OC (configuration not stated)	-4%	-20%	.	-8%	.	.	-10%	.
41	O=C(Nc1cc(Cl)cc(Cl)c1)N1CCN(C(=O)C2CCCO2)CC1 (configuration not stated)	-4%	-14%	12%	-6%	?	.	3%	.

Remaining list, next part:
item	smiles	SARS PLP yeast	StopGo reporter	Marburg entry inh	RE007 growth inh	Lassa entry inh	Cruzain inh Det	NS1 inh	Cruzain noTriton
49	Cc1cc(C)cc(NC(=O)C(=O)NCCCN2CCOCC2)c1	-5%	0%&11%	5%&1%[46.1 µM]	-7%	3%	-3.0%	.	0%
50	Nc1cccc(C(=O)c2ccccc2C(=O)O)c1	.	2%	-12%[46.1 µM]	-9%	-4%[46.1 µM]	.	.	.
51	COc1ccc(NC(=O)CN(Cc2ccccc2)S(C)(=O)=O)cc1OC	12%	-3%	?	1%	2%	-1.5%	1%	2%
52	O=C(COc1ccc(Cl)cc1)Nc1ccccc1OCc1cc(=O)n2ccccc2n1	.	7%	.	.	15%[46.1 µM]	2.3%	.	0%
53	O=C(CCSCc1ccccc1F)N1CCN(c2ccc(F)cc2)CC1	.	-11%	.	.	-10%[46.1 µM]	0.1%	.	4%
54	CCc1ccccc1NS(=O)(=O)c1ccc2c(c1)NC(=O)CC(=O)N2	-13%	-26%	4%	16%	-6%	0.1%	2%	0%
55	CSCc1nnc(NC(=O)c2ccc(S(=O)(=O)N(CC(C)C)CC(C)C)cc2)o1	29%	.	-6%	.	.	0.2%	-31%	?
56	Cc1cccc(NC(=S)N(CCN(C)C)C(C)c2ccccn2)c1 (configuration not stated)	-3%	-2%	3%	-1%	14%	2.5%	5%	-14%

Compounds as they come; any-hit rate near 4.7%.
